Compound activity as filed in PubChem.
HNF4A DNA FP – change in binding of human HNF4 alpha to DNA; 360,000 tested, 0.3% active; activity change, % at 10 µM; P41235; AID 1224865; HNF4a-FITC DNA binding, fluorescence polarization, 1 h; in the data active = activity change above about 30%, passing the limit was not always enough;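 also: controls were the assay level and a saturating level of protein; the project sought stronger binding though the title names inhibitors; some compounds called inactive have numbers as strong as hits; positive values seem to mean higher polarization but the record does not say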
FGF22 binding – FGF22 (human) thermal shift binding | recombinant FGF22 thermal shift, SYPRO orange fluorescence; percent of sucrose octasulfate shift, DMSO zero | calls only at 9.99 µM | 340,000 tested, 1.5% active | Q9HCT0;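 active = melting point raised past a set limit in the mean and every replicate; three in four hits are not shown here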
Target sequence (Q9HCT0 whole entry, looked up): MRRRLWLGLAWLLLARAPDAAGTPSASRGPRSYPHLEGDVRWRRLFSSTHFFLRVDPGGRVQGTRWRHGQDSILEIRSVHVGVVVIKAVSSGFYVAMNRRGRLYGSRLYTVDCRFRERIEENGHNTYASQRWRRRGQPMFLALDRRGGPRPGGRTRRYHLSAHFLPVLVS
Vif TR-FRET – inhibitors of Vif binding to APOBEC3G peptide, primary screen, biochemical, TR-FRET, GST-Vif 1-94, biotin-A3G peptide, dose response retest (AID 1117319) | inhibition, %; hits with a dose series show IC50 in µM | 260,000 tested, 0.57% active | TR-FRET GST-Vif / biotin-A3G peptide binding; higher % means a stronger effect; test concentration not given here; strong numbers were not always called active;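 active = above the screen mean plus three standard deviations and confirmed in dose response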;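 also: Vif residues 1-94 fused to GST binding biotinylated APOBEC3G peptide 110-148; 0% = full assay without inhibitor and 100% = GST in place of GST-Vif; retest series ran down from 100 µM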
MLL AF4-AF9 inh – inhibitors of human MLL-AF4/AF9 interaction; P42568; AlphaScreen, biotin-AF4 peptide binding to FLAG-AF9; inhibition, % at 10 µM; 350,000 tested, 0.47% active; AID 651704;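 active = every replicate reaching a set inhibition limit, whatever the replicate mean, cut at about 25% in these data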;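 also: 0% = plate neutral control median and 100% = total signal loss; the record names both 10 and 1 µM as test concentration; the first replicate is given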
Ecoli rRNA inh – inhibits bacterial ribosomal RNA function over humanized ribosomes | E. coli WT GFP vs humanized-ribosome RFP mutants, fluorescence, 24 h; stronger effect = lower value; DMSO median 0, no signal -100 | 350,000 tested, 1.6% active | GFP signal change (wild-type ribosome), % (concentration not given with the values) | AID 720706;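 active = significant combined selectivity score with lowered wild-type GFP, culture density cut under 30%, mutant RFP and density less affected; inactive = any of these conditions unmet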; also: one replicate is shown; some compounds called inactive have numbers as strong as hits
Ecoli growth – blocks Escherichia coli growth. OD600, 23 h; stronger effect = lower value. OD600 absorbance (concentration not given with the values). 330,000 tested, 0.21% active;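 active = OD600 absorbance below the run mean of sample wells minus 3.6 SD, in any replicate, cut at about 0.56 in these data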;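 also: stock transfer was 300 nL into about 60 µL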
ALR inh – human ALR oxidase inhibition via reduced H2O2; P55789; purified ALR, DTT oxidation, H2O2 HRP-luminol luminescence; inhibition, % (test concentration not listed); 290,000 tested, 3.8% active; AID 485317;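 active = mean and each replicate at 75% or more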;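 also: stock transfer was 7.5 nL into about 7.5 µL; 0% = neutral wells and 100% = wells with inactivated enzyme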
Target sequence (P55789 whole entry, looked up): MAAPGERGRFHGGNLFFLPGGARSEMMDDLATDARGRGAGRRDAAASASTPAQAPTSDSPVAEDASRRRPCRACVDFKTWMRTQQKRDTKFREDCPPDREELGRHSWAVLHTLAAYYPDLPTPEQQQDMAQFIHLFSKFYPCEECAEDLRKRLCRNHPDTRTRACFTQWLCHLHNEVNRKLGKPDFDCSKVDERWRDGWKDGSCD
Ecoli rRNA inh OD600 – also measured in Ecoli rRNA inh; calls as there; OD600 change, %; measured here: OD600 growth;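 optical density of the mix in the first replicate; 0 = DMSO median and -100 = no signal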
Ecoli rRNA inh RFP – recorded beside Ecoli rRNA inh, whose call it bears; RFP signal change, %; measured here: RFP humanized mutant strains;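 first replicate; 0 = DMSO median and -100 = no signal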
Active calls of the source: *; i = inactive; . = not tested or not shown; & = joins results of further samples.

HNF4A DNA FP,FGF22 binding,Vif TR-FRET,MLL AF4-AF9 inh,Ecoli rRNA inh,Ecoli rRNA inh OD600,Ecoli rRNA inh RFP,Ecoli growth,ALR inh,Molecule
-0.5,i,.,-4.8,-8,-7,-2.7,0.7,39,Cc1ccc(S(=O)(=O)NC(=O)c2cc(C)n(-c3ccccc3)c2C)cc1
-1.0,i,.,-0.1,-48,-79,-12,.,.,Cc1ccc(-c2nc3ccc(C)cn3c2Cc2cccc(F)c2)cc1
2.5,i,-8%,-2.1,-10,-24,-3.0,0.67,-12,Fc1ccccc1N1CCN(Cc2cc(-c3ccccc3)on2)CC1
3.3,i,.,1.7,7,0,1.5,0.65,-5,Cn1nc(OCC(=O)O)cc1C(F)(F)F
3.5,i,-8%&31%,-1.2,-15,-25,-8.3,0.72,15,O=C(CN1C(=O)CC(c2ccco2)Sc2ccccc21)NCc1ccc2c(c1)OCO2 (stereo not drawn)
.,i,.,-2.1,1,-1,1.3,.,.,C[C@H]1CN([C@@H](C)CO)C(=O)Cc2cc(NS(=O)(=O)c3ccc(Cl)cc3)ccc2O[C@H]1CN(C)C(=O)Nc1ccc(C(F)(F)F)cc1
2.1,i,.,-0.1,-3,-15,-0.2,0.65,-2,O=C(CCCn1c(=S)[nH]c2ccc(Br)cc2c1=O)NCc1ccccn1
13,i,.,5.9,-28,-29,-0.9,.,.,NC(Cc1ccc(C(F)(F)F)cc1)c1csc(Nc2nncc3ccccc23)n1 (stereo not drawn)
4.1,.,-7%,.,.,.,.,0.71,2,CC1CCCCN1C(=O)c1cc(Cl)ccc1[N+](=O)[O-] (stereo not drawn)
0.6,i,-9%,-1.5,-6,-4,5.0,0.7,-10,O=C(CCCN1C(=O)/C(=C\c2cccs2)SC1=S)Nc1ccccn1
-2.1,.,2%,.,.,.,.,0.72,-1,Cn1c(SCC(N)=O)nnc1-c1ccccc1
0.7,i,.,-0.5,-6,-2,0.5,.,.,CC(=O)OC[C@@H]1CN(Cc2cccc(C(F)(F)F)c2)C[C@H](n2cnc3c(N4CCOCC4)ncnc32)O1
-3.2,i,0%,0.2,5,11,-2.3,0.63,.,COc1ccc(NC(=O)Nc2ccc(Br)c(C)c2)cc1
1.1,i,5%,.,-31*,-6.6*,-5.4*,0.71,.,Cc1ccc(-c2nnc(Nc3ccc(CC(N)=O)cc3)c3ccccc23)cc1S(=O)(=O)NCC1CCCO1 (stereo not drawn)
0.7,i,2%,-4.3,9,7,1.2,0.67,-3,CC1CCN(CC(CS(=O)(=O)c2ccc([N+](=O)[O-])cc2)N2CCC(C)CC2)CC1 (stereo not drawn)
2.6,i,.,2.3,-23*,-16*,9.2*,.,.,Clc1cccc(Cc2c(-c3cccc(Cl)c3)nc3ccc(Br)cn23)c1
.,i,.,-2.6,2,8,1.3,.,.,Cc1noc(C)c1NC(=O)N[C@H]1CC[C@@H](CC(=O)NCCCN(C)C)O[C@H]1CO
3.0,i,7%,-0.9,4,8,0.6,0.62,2,Cc1ccc(-n2ncc3c(SCC(=O)NNC(=O)C(C)C)ncnc32)cc1
-3.9,.,-2%,.,.,.,.,0.7,24,CCc1c(C)sc(NC(=O)CCc2ccc(OC)cc2)c1C(N)=O
22,i,11%,9.8,-17,16,-0.9,.,3,CN1CCc2c(sc3nc(NN)n(Cc4ccccc4)c(=O)c23)C1
3.1,.,1%,.,.,.,.,0.69,22,COc1ccccc1NC(=O)C(C/C=C(\C)Cl)C(C)=O (stereo not drawn)
0.4,i,.,-0.7,-3,6,-5.6,.,0,O=C(C[C@@H]1C/C=C/CC[C@@H](Cc2ccc(F)cc2)C(=O)O[C@@H](c2ccccc2)CNC1=O)NCCO
3.3,.,3%,.,.,.,.,0.72,-6,CC(C)(C(=O)c1ccccc1)/[N+]([O-])=C/c1ccc(F)cc1
.,i,.,-3.7,2,4,-0.2,.,.,C[C@@H]1CCCCO[C@@H](CN(C)CC2CCCCC2)[C@H](C)CN([C@@H](C)CO)C(=O)c2cc(NS(C)(=O)=O)ccc2O1
4.1,.,-5%,.,.,.,.,.,-2,C/C(=N\Nc1cc(-c2ccccc2)nc(-c2ccc(Br)cc2)n1)c1cccc(N)c1
0.5,.,-6%,.,.,.,.,0.66,-17,CC1Cc2ccccc2N1C(=O)C12CCC(C)(C(=O)C1)C2(C)C (stereo not drawn)
2.0,.,32%,.,.,.,.,0.7,-10,O=c1c2ccccc2ncn1-c1ccc2c(c1)OCCO2
2.2,i,2%,-8.0,-4,2,-0.7,0.7,69,CC(C)(C)NC(=S)NNC(=O)c1ccc2ncccc2c1
-2.1,.,-1%,-4.5,22,11,0.5,0.65,1,Cn1nnc(NC(=S)NC(=O)Cc2ccccc2)n1
-3.1,i,3%,-4.7,4,0,-14,0.71,2,O=C(c1cc2cc([N+](=O)[O-])ccc2oc1=O)n1cccn1
-1.2,.,-1%,.,.,.,.,0.75,-3,CSc1ncc(Cl)c(C(=O)NCc2ccc3c(c2)OCO3)n1
.,i,.,-2.0,5,9,-2.1,.,.,Cc1noc(C)c1NC(=O)N1C[C@@H](O)COC[C@@H]2O[C@@H](CC(=O)NCC3CC3)CC[C@H]21
.,i,.,-12,-1,-2,-0.4,.,.,CN1C(=O)c2cc(NC(=O)Cc3cccs3)ccc2OC[C@H]2O[C@@H](CC(=O)NCc3ccc(-c4ccccc4)cc3)CC[C@H]21
0.8,i,-6%,2.8,0,6,-2.3,0.67,-3,COc1ccccc1OCc1ccc(C(=O)N2CCN(C)CC2)o1

13 of these compounds in a different format:
smiles | HNF4A DNA FP | FGF22 binding | Vif TR-FRET | MLL AF4-AF9 inh | Ecoli rRNA inh | Ecoli rRNA inh OD600 | Ecoli rRNA inh RFP | Ecoli growth | ALR inh
CCc1c(C)sc(NC(=O)CCc2ccc(OC)cc2)c1C(N)=O | -3.9 | . | -2% | . | . | . | . | 0.7 | 24
CN1CCc2c(sc3nc(NN)n(Cc4ccccc4)c(=O)c23)C1 | 22 | i | 11% | 9.8 | -17 | 16 | -0.9 | . | 3
COc1ccccc1NC(=O)C(C/C=C(\C)Cl)C(C)=O (stereo not drawn) | 3.1 | . | 1% | . | . | . | . | 0.69 | 22
O=C(C[C@@H]1C/C=C/CC[C@@H](Cc2ccc(F)cc2)C(=O)O[C@@H](c2ccccc2)CNC1=O)NCCO | 0.4 | i | . | -0.7 | -3 | 6 | -5.6 | . | 0
CC(C)(C(=O)c1ccccc1)/[N+]([O-])=C/c1ccc(F)cc1 | 3.3 | . | 3% | . | . | . | . | 0.72 | -6
C[C@@H]1CCCCO[C@@H](CN(C)CC2CCCCC2)[C@H](C)CN([C@@H](C)CO)C(=O)c2cc(NS(C)(=O)=O)ccc2O1 | . | i | . | -3.7 | 2 | 4 | -0.2 | . | .
C/C(=N\Nc1cc(-c2ccccc2)nc(-c2ccc(Br)cc2)n1)c1cccc(N)c1 | 4.1 | . | -5% | . | . | . | . | . | -2
CC1Cc2ccccc2N1C(=O)C12CCC(C)(C(=O)C1)C2(C)C (stereo not drawn) | 0.5 | . | -6% | . | . | . | . | 0.66 | -17
O=c1c2ccccc2ncn1-c1ccc2c(c1)OCCO2 | 2.0 | . | 32% | . | . | . | . | 0.7 | -10
CC(C)(C)NC(=S)NNC(=O)c1ccc2ncccc2c1 | 2.2 | i | 2% | -8.0 | -4 | 2 | -0.7 | 0.7 | 69
Cn1nnc(NC(=S)NC(=O)Cc2ccccc2)n1 | -2.1 | . | -1% | -4.5 | 22 | 11 | 0.5 | 0.65 | 1
O=C(c1cc2cc([N+](=O)[O-])ccc2oc1=O)n1cccn1 | -3.1 | i | 3% | -4.7 | 4 | 0 | -14 | 0.71 | 2
CSc1ncc(Cl)c(C(=O)NCc2ccc3c(c2)OCO3)n1 | -1.2 | . | -1% | . | . | . | . | 0.75 | -3

Only part of the results is shown (hit frequency here may not be typical).
